# Bioassay records from PubChem.
# quorum sensing – Vibrio cholerae quorum sensing activators, luminescence (AID 686977) | luminescence at 50 µM unless noted, or EC50 in µM where a hit was titrated | V. cholerae quorum sensing reporter, luminescence, 6 h; higher luminescence means a stronger effect; most inactives read 0 | 9,400 tested, under 10 active;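 active means light above mean plus 3 SD and confirmed in a dose series; inconclusive means above that limit without a clear retest; inactive means below it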;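 further: raw light counts without normalisation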
# * = called active by the depositor; ? = inconclusive; [ ] = another dose, or the depositor's remark. The list is partial (hit frequency here may not be typical).
cpd	Structure	quorum sensing
1	Cc1scc2c1N(C(=O)CN1CCN(C)CC1)c1ccccc1NC2=O	0[10 µg/mL]
2	N=c1nc(N2CCCCC2)cc(N)n1O	240[10 µg/mL]
3	COc1ccc(C(=O)c2ccccc2)c(O)c1	0[10 µg/mL]
4	Cc1ccccc1OCC(O)CO (stereo not given)	0[10 µg/mL]
5	CC(Cc1cccc(C(F)(F)F)c1)NCCOC(=O)c1ccccc1 (stereo not given)	0[10 µg/mL]
6	CN[C@@H]1[C@H](O)[C@H](NC)[C@H]2O[C@@]3(O)C(=O)C[C@@H](C)O[C@H]3O[C@@H]2[C@H]1O	0[10 µg/mL]
7	CCCOc1ccc(C(=O)OCCN(CC)CC)cc1N	40[10 µg/mL]
8	CC(C)NNC(=O)c1ccncc1	0[10 µg/mL]
9	CCN(CCCCOC(=O)c1ccc(OC)c(OC)c1)C(C)Cc1ccc(OC)cc1 (stereo not given)	?
10	CCc1cccc(CC)c1NC(=O)CN(CC(=O)O)CC(=O)O	40[10 µg/mL]
11	CN(C)C/C=C(\c1ccc(Br)cc1)c1cccnc1	0[10 µg/mL]
12	C[C@@H]1C[C@H]2[C@@H]3CCC4=CC(=O)C=C[C@]4(C)[C@@]3(Cl)[C@@H](O)C[C@]2(C)[C@@]1(OC(=O)c1ccco1)C(=O)CCl	0[10 µg/mL]
13	CC(C)(C)NCC(O)COc1cccc2c1CC(O)C(O)C2 (stereo not given)	40[10 µg/mL]
14	CCCCOc1cc(C(=O)OCCN(CC)CC)ccc1N	0[10 µg/mL]
15	Cc1cc(=O)oc2cc(O)ccc12	0[10 µg/mL]
16	COc1cc(N)c(Cl)cc1C(=O)N[C@H]1CCN(CCCOc2ccc(F)cc2)C[C@H]1OC	?
17	O=C1c2c(O)ccc(O)c2C(=O)c2c(NCCNCCO)ccc(NCCNCCO)c21	0[10 µg/mL]
18	CCCCN(CCCC)CCCOC(=O)c1ccc(N)cc1	0[10 µg/mL]
19	CC[C@]12CCCN3CCc4c(n(c5ccccc45)[C@](O)(C(=O)OC)C1)[C@@H]32	0[10 µg/mL]
20	CCn1cc(C(=O)O)c(=O)c2cc(F)c(N3CCNC(C)C3)c(F)c21 (stereo not given)	0[10 µg/mL]
21	CC(=O)OCC(=O)[C@@]1(O)CC[C@H]2[C@@H]3CCC4=CC(=O)C=C[C@]4(C)[C@@]3(F)[C@@H](O)C[C@@]21C	40[10 µg/mL]

# Down the list, as entered above.
# quorum sensing, entries 12–17 → 0[10 µg/mL], 40[10 µg/mL], 0[10 µg/mL], 0[10 µg/mL], ?, 0[10 µg/mL]

# An excerpt of these results, with each value named:
12) C[C@@H]1C[C@H]2[C@@H]3CCC4=CC(=O)C=C[C@]4(C)[C@@]3(Cl)[C@@H](O)C[C@]2(C)[C@@]1(OC(=O)c1ccco1)C(=O)CCl
- quorum sensing: 0[10 µg/mL]

13) CC(C)(C)NCC(O)COc1cccc2c1CC(O)C(O)C2 (stereo not given)
- quorum sensing: 40[10 µg/mL]

# Arranged by molar mass (highest first): part of the list above.
cpd	Structure	quorum sensing
16	COc1cc(N)c(Cl)cc1C(=O)N[C@H]1CCN(CCCOc2ccc(F)cc2)C[C@H]1OC	?
19	CC[C@]12CCCN3CCc4c(n(c5ccccc45)[C@](O)(C(=O)OC)C1)[C@@H]32	0[10 µg/mL]
20	CCn1cc(C(=O)O)c(=O)c2cc(F)c(N3CCNC(C)C3)c(F)c21 (stereo not given)	0[10 µg/mL]
3	COc1ccc(C(=O)c2ccccc2)c(O)c1	0[10 µg/mL]
2	N=c1nc(N2CCCCC2)cc(N)n1O	240[10 µg/mL]
8	CC(C)NNC(=O)c1ccncc1	0[10 µg/mL]
